Screens (PubChem)
VDR inhibitor: Inhibitors of the vitamin D receptor (VDR): qHTS | Vitamin D3 receptor (Homo sapiens), P11473 | VDR-SRC2-3 peptide fluorescence polarization, 2 h | Potency, µM, for inactives: max response, negative = inhibition, most hits filed as inhibitors | 0.93% of 400,000 active; active means well fitted inhibition curve with a large enough effect; inconclusive means small, poorly fitted or top-dose-only effect, or another doubt; inactive means no such curve, though single readings can be large or run the other way; further: series mostly up to about 120 µM
Target sequence (P11473 whole entry, looked up): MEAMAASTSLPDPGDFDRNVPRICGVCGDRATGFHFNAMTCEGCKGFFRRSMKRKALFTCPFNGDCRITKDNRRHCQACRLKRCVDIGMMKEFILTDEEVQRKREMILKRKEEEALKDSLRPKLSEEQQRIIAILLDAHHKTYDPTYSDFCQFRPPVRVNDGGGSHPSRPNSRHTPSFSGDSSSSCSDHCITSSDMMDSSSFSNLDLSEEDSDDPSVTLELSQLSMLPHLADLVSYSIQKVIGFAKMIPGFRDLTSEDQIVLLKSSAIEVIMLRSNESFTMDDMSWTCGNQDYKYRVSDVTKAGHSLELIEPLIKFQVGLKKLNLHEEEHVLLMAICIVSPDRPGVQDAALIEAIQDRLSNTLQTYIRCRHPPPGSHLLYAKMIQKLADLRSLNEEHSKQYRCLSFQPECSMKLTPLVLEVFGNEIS
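Signal is fluorescence polarization, reporting how far test compounds block the interaction of VDR with the SRC2-3 coregulator peptide after a 2 h room-temperature incubation.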
An asterisk follows results filed as active; u = inconclusive. On the % scale 0 is the no-effect control and ±100 the full control effect; potency means the concentration at half of the fitted maximal effect. Only part of the results is shown; rates above refer to the full screens.

SMILES | VDR inhibitor
CCOC(=O)c1c(N)nn(C(=O)c2ccccc2)c1-c1ccccc1 | -1%
Cc1cc(C)cc(NC(=O)CC2NCCNC2=O)c1 (centres undefined) | -8%
Cc1nn(Cc2ccc([N+](=O)[O-])cc2)c(=O)n1-c1ccc(Cl)cc1 | -9%
COc1cc(C(=O)NC2CCCc3c2cnn3-c2ccccc2F)cc(OC)c1OC (centres undefined) | -10%
COc1ccccc1OCC(=O)N(Cc1ccc(N(C)C)cc1)CC1CCCO1 (centres undefined) | 9%
NC(=O)c1ccsc1NC(=O)C1CCCN1S(=O)(=O)c1ccc(Cl)cc1 (centres undefined) | 13%
COc1cccc(NC(=O)Cn2c(=O)n(-c3cccc(OC)c3)c(=O)c3sc4ccccc4c32)c1 | -5%
C[C@H]1COC(=O)[C@H](CC(=O)OC(C)(C)C)C/C=C\C[C@H](CC(=O)N(CCO)Cc2ccccc2)C(=O)N1 | 3%
CS(=O)(=O)n1nc(C(=O)N2CCOCC2)nc1N | 12%
C/C(=N\NC(=O)c1ccc(NS(=O)(=O)c2cccs2)cc1)c1ccncc1 | -3%
Cn1c(CN2CCCCC2)c(C#N)c2ccccc21 | -11%
COc1cccc2c1Oc1ncccc1N(C(=O)CCC(=O)NCc1ccccc1)C2 | 8%

A second format for part of the listing above:
| compound | VDR inhibitor |
| --- | --- |
| COc1cccc2c1Oc1ncccc1N(C(=O)CCC(=O)NCc1ccccc1)C2 | 8% |
| COc1cc(C(=O)NC2CCCc3c2cnn3-c2ccccc2F)cc(OC)c1OC (centres undefined) | -10% |
| C/C(=N\NC(=O)c1ccc(NS(=O)(=O)c2cccs2)cc1)c1ccncc1 | -3% |
| COc1ccccc1OCC(=O)N(Cc1ccc(N(C)C)cc1)CC1CCCO1 (centres undefined) | 9% |
| COc1cccc(NC(=O)Cn2c(=O)n(-c3cccc(OC)c3)c(=O)c3sc4ccccc4c32)c1 | -5% |
| Cn1c(CN2CCCCC2)c(C#N)c2ccccc21 | -11% |

Looked up above:
In VDR inhibitor, C/C(=N\NC(=O)c1ccc(NS(=O)(=O)c2cccs2)cc1)c1ccncc1 has -3%
In VDR inhibitor, COc1cccc(NC(=O)Cn2c(=O)n(-c3cccc(OC)c3)c(=O)c3sc4ccccc4c32)c1 has -5%
In VDR inhibitor, NC(=O)c1ccsc1NC(=O)C1CCCN1S(=O)(=O)c1ccc(Cl)cc1 (centres undefined) has 13%
In VDR inhibitor, Cn1c(CN2CCCCC2)c(C#N)c2ccccc21 has -11%

(listing goes on)
SMILES | VDR inhibitor
COc1ccc(NC(=O)c2c(NC(=O)COc3ccccc3)sc3c2CCC(C(C)(C)C)C3)cc1 (centres undefined) | u
CCOc1ccc(NC(=O)N2CCC(n3nnc4ccccc43)CC2)cc1 | -11%
CCOc1cc(CN2CCN(S(=O)(=O)c3ccc(C)cc3)CC2)ccc1OC | -5%
Cc1ccc(C(C)NC(=O)c2cccnc2)cc1 (centres undefined) | 2%
COc1cc(NC(=O)N2c3ccccc3Sc3ccccc32)c(C(=O)O)cc1OC | -10%
O=C(CSc1nc(-c2ccc(F)cc2)[nH]c1-c1ccc(F)cc1)Nc1ccc2c(c1)OCCO2 | -2%
CN(C(=O)CSc1nc(O)cc(=O)n1C1CCCC1)c1ccccc1 | 3%
CC(C)CC(=O)N1CCN(CC2CC=CCC2)CC1 (centres undefined) | -35%
O=C(NCc1ccccc1)N1CCC(n2cnc3cc(F)ccc32)CC1 | 9%
CC(C)(CCCCCCCCCCC(C)(C)CC(=O)O)CC(=O)O | u
Cc1ccc(OCC(=O)N/N=C\c2ccco2)c(C)c1 | 7%
CC1CC1C(=O)OCC(=O)NNC(=O)c1ccc([N+](=O)[O-])cc1 (centres undefined) | 4%
CCOC(=O)c1sc(NC(=O)Cc2c(F)cccc2Cl)nc1C | -15%
CC(C)[C@H]1CN=C2N(C[C@H](C)NC(=O)CCC3CCCCC3)[C@H](Cc3ccc(O)cc3)CN21 | -6%
COc1cc(CC(NC(C)=O)C(=O)NC2CCN(C(=O)C3CC3)CC2)cc(OC)c1 (centres undefined) | -4%
Cc1cc(S(=O)(=O)N2CCc3ccccc3C2)ccc1F | 11%
O=[N+]([O-])c1nc2ccccc2[nH]1 | -2%
O=C(NC1=C(Nc2ccc(F)cc2)C(=O)c2ccccc2C1=O)c1ccc(Cl)cc1 | -26%
CC1CN(C(=O)c2cccs2)CC(C)O1 (centres undefined) | 7%
Cc1nn(-c2ccccc2)c(Cl)c1/C=N/NC(=O)OC(C)(C)C | -10%
O=C(NCCCCc1ccccc1)c1ccc(Br)o1 | -2%
COc1ccc(OCC(=O)Nc2ccc(S(=O)(=O)Nc3cc(C)nc(C)n3)cc2)cc1 | 19%
CCOP(=O)(OCC)C(Nc1ccc([N+](=O)[O-])cc1)c1ccc(Cl)cc1 (centres undefined) | 1%
CCCCNC(=O)c1cc(C)nn1-c1ccccc1 | -8%

2 consecutive records from above, for reference:
SMILES | VDR inhibitor
O=C(NC1=C(Nc2ccc(F)cc2)C(=O)c2ccccc2C1=O)c1ccc(Cl)cc1 | -26%
CC1CN(C(=O)c2cccs2)CC(C)O1 (centres undefined) | 7%

More results follow.
SMILES | VDR inhibitor
CCCOC(=O)C1NC(=O)N2C(C(=O)OCCC)C(C)(C)S[C@H]12 (some centres undefined) | 3%
COc1ccc(C(=O)Nc2ccc(NS(=O)(=O)c3ccccc3)cc2)cc1OC | 13%
Cc1nnc2c(-c3ccccc3)nc3ccccc3n12 | 9%
COC(=O)c1ccc(NC(=O)CSc2nncn2C)cc1 | 5%
Cc1ccc(C)c2[nH]c(=O)c(CCNC(=O)Cc3cccs3)cc12 | 2%
CCN(CC(=O)NCc1cccs1)C(=O)COc1cccc(C(F)(F)F)c1 | -8%
O=C(c1ccncc1)N1CCC2(CC1)CCN(c1ncccn1)CC2 | -5%
COC(=O)Cn1c(C)c(/C=C/c2cc[n+](C)cc2)c2ccccc21 | -4%
CC12CCC(C(=O)NNC(=O)c3ccc(F)cc3)(OC1=O)C2(C)C (centres undefined) | -7%
Cn1nnnc1SCCNCc1ccccc1OCc1ccc(Cl)cc1Cl | -6%
Cc1ccc2[nH]c(=O)c(CN(c3cccc(C)c3C)S(=O)(=O)c3ccccc3)cc2c1 | -19%
CCn1c(=O)[nH]c(=O)c2c(N)c(C(=O)c3cc(F)ccc3F)sc21 | -30%
O=C(Nc1ccccc1N1CCCCC1)c1cc(S(=O)(=O)N2CCOCC2)ccc1Cl | -18%
Cc1cccc(N2C(=O)c3cccc4c(N5CCCCC5)c([N+](=O)[O-])cc(c34)C2=O)c1C | -2%
Cc1cc2c(cc1C)N(C(=O)CSc1nncn1C)C(C)(C)c1ssc(=S)c1-2 | -20%
COc1ccc(NC(=O)C(=O)NCC(=O)Nc2cccc(C(F)(F)F)c2)cc1 | 6%
Cc1ccc(S(=O)(=O)N2CCN(C(=O)c3ccc([N+](=O)[O-])cc3)C2)cc1 | -6%
Cc1cc(-c2ccc(S(=O)(=O)N(C)Cc3ccccc3)cc2)on1 | -12%
CCSc1nnc(-c2ccccc2NC(=O)CC)c(=O)[nH]1 | -23%
CCC(CO)NCc1sccc1C (centres undefined) | 5%
CCCNC(=O)CCn1c(-c2ccc(C)cc2)cc(C(=O)OCC)c1C | -8%
Cc1ccc(S(=O)(=O)NCC(=O)N(CC2CCCO2)C(C(=O)NC2CCCCC2)C(C)C)cc1 (centres undefined) | -9%
CCC(C)(O)c1[nH]c2ccc(C(=O)OC)cc2c1C (centres undefined) | -3%
O=C(NC1CCCN(c2ccc(C(F)(F)F)cn2)C1)c1ccnc(Cl)c1 (centres undefined) | 3%

Sorted by molar mass (ascending): 3 of the compounds above
SMILES | VDR inhibitor
CCCNC(=O)CCn1c(-c2ccc(C)cc2)cc(C(=O)OCC)c1C | -8%
Cc1ccc(S(=O)(=O)N2CCN(C(=O)c3ccc([N+](=O)[O-])cc3)C2)cc1 | -6%
Cc1ccc(S(=O)(=O)NCC(=O)N(CC2CCCO2)C(C(=O)NC2CCCCC2)C(C)C)cc1 (centres undefined) | -9%

(continued)
SMILES | VDR inhibitor
Nc1nc(NCc2ccco2)nc(N2CCCC2)c1[N+](=O)[O-] | -3%
NC(=S)Cc1ccccc1Cl | 19%
CCC(=O)Oc1ccc2c(c1)OC1(OC(C)=O)OC(C)CC1=C2C (centres undefined) | -2%
COCCNC(=O)c1csc(Nc2cccc3ccccc23)n1 | -9%
Cc1cc(O)c(NC(=O)c2cccc([N+](=O)[O-])c2)cc1C | -14%
CC(C)N1C(=S)SC(C)(C)C1n1oc(=O)n(-c2cccc(Cl)c2)c1=O (centres undefined) | -2%
O=C(CCC(=O)N1CCOCC1)NCCc1ccccc1 | -7%
CCOc1ccccc1NS(=O)(=O)c1cc(-c2cnc(C3CC3)o2)ccc1C | 7%
Cn1c(SCC(=O)Nc2ccc(N3CCOCC3)cc2)nnc1C(F)(F)F | -6%
Cc1ccc(S(=O)(=O)Nc2cc(Cl)c(O)cc2C)cc1 | 11%
CS(=O)(=O)N(CC(=O)NCc1ccncc1)C1CCCCC1 | -3%
COc1ccc(S(=O)(=O)NCc2ccccn2)c(Cl)c1Cl | -13%
O=C(CNC(=O)c1ccccc1)NC1(C(=O)NC2CCCCC2)CCCCC1 | 1%
Cc1cccc(NC(=O)CSCC(=O)N(C)Cc2c(F)cccc2Cl)c1 | -5%
COc1ccc(C(=O)Nn2c(SCC(=O)N3CCC(C)CC3)nc3ccccc3c2=O)cc1 | -3%
Cc1nc2cc(NC(=O)c3ccc([N+](=O)[O-])s3)ccc2s1 | -9%
COCCCNC(=O)CSC1=Nc2ccccc2C2=NC(CC(=O)NCc3ccccc3)C(=O)N12 (centres undefined) | 6%
Cc1oc2c(C)c3oc(=O)c(CC(=O)N[C@@H](CC(C)C)C(=O)N[C@@H](Cc4ccccc4)C(=O)O)c(C)c3cc2c1C | -7%
CC(C)(C)NC(=O)N1CCN(S(=O)(=O)c2ccc3c(c2)CCC3)CC1 | 1%
c1ccc(-c2c[nH]c(-c3ccccc3)c2)cc1 | -5%
COc1ccc(CCNC(=O)CC2COc3ccccc3O2)cc1OC (centres undefined) | 3%
CC(=O)Nc1ccc(/C=N/NC(N)=S)cc1 | u
CCN(CC)C(=O)c1sc2nc(-c3ccc(OC)cc3)cn2c1C | -8%
COCCNC(=O)Cn1nc(C)c2ccccc2c1=O | -1%
Cc1ccn2cc(-c3ccc(C)c(NS(=O)(=O)c4ccc(Cl)cc4)c3)nc2c1 | 13%
O=S(=O)(Nc1ccc(S(=O)(=O)N2CCCCCC2)cc1)c1cccs1 | -19%
CC1CCCCC12NC(=O)N(CC(=O)OCc1c(F)cccc1Cl)C2=O (centres undefined) | -9%
Nc1nnn(CC(=O)N/N=C/c2ccccc2Cl)n1 | 10%
Cc1nn(-c2ccccc2)c(Cl)c1C(=O)NNC(=O)c1ccccc1O | 13%
CCOC(=O)c1c(C)[nH]c2cc(Br)c(OC)cc12 | -5%
Cc1nc(NC(=O)c2c(-c3ccccc3Cl)noc2C)sc1C | 4%
CCSc1nnc(-c2cccnc2)n1-c1ccc(Cl)c(C)c1 | -14%
Cc1ccc(NC(=O)COC(=O)c2ccco2)cc1S(=O)(=O)N1CCOCC1 | 1%
O=C(N/N=C/c1ccco1)c1cc(-c2cccc(Br)c2)nc2ccccc12 | -17%
Cc1cccc(NC(=O)c2c(O)c3ccccc3n(C)c2=O)c1 | 7%
COc1cc([N+](=O)[O-])cc(/C=N/NC(=O)Cn2nc(C)cc2C)c1O | -7%
Cc1ccc(C)c2sc(NC(=O)c3ccc(N4CCCCC4)c([N+](=O)[O-])c3)nc12 | -2%
O=C(COC(=O)CC1CC2CCC1C2)NCc1ccc(Cl)cc1 (centres undefined) | -10%
CCn1c(C(C#N)/C(=N\S(=O)(=O)c2cccs2)c2ccccc2)nc2ccccc21 (centres undefined) | -6%
CN(C)CCn1cnc2c(c1=N)C(c1ccccc1)c1ccc3ccccc3c1O2 (centres undefined) | 11%
O=S(=O)(c1ccc(Cl)cc1)N1CCN(C(=S)NCC2CCCO2)CC1 (centres undefined) | -9%
CC(=O)Oc1ccc(/C=N/NS(=O)(=O)c2ccccc2)cc1 | -10%
CN1CC=C2C(C#N)=C(N)C(C#N)(C#N)C(CCc3ccccc3)C2C1 (centres undefined) | u
CC1CN(CC(O)COC(c2ccccc2)c2ccccc2)CC(C)O1 (centres undefined) | u
Cc1cc(Cl)ccc1NC(=O)CCS(=O)(=O)c1cc2c(cc1C)NC(=O)CO2 | -6%
O=c1[nH]c(CSc2nnnn2-c2ccccc2)nc2ccccc12 | -9%
CC1(C)CC(=O)C=C(NCc2cccnc2)C1 | 3%
O=C(CSc1cn[nH]n1)Nc1cccc(C(=O)O)c1 | 45µM*
O=C(O)c1ccc2c(c1)C(c1ccccc1)OC2=O (centres undefined) | 6%
Cc1noc(C)c1NC(=O)Nc1ccc2c(c1)C(=O)N([C@H](C)CO)C[C@H](C)[C@H](CN(C)C)O2 | 8%
O=C(CSc1nnc(NC(=O)c2ccc(F)cc2F)s1)NC1CC1 | u
O=C(OCC(=O)N1CCCCCC1)c1ccc(Cl)c(S(=O)(=O)N2CCCC2)c1 | u
Cc1nnsc1S(=O)(=O)Cc1ccccc1Cl | -8%
CN(CC(=O)NCc1ccco1)CC(=O)Nc1c(Cl)cccc1Cl | -17%
Cc1cccc(C(CC(=O)NCc2ccco2)c2ccccc2)c1O (centres undefined) | -6%
COc1ccc(COc2cccc(C=O)c2)cc1 | -10%
COc1ccc(-c2csc3ncnc(Nc4ccccc4)c23)cc1 | 6%
